E coli growth = inhibitors of Escherichia coli growth | 330,000 tested, 0.21% active | AID 1053175 | OD600 absorbance (no concentration beside the values) | OD600, 23 h; stronger effect = lower value;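 active = OD600 absorbance below the run mean of sample wells minus 3.6 SD, in any replicate, cut at about 0.56 in these data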;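 also: stock transfer was 300 nL into about 60 µL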
RanGTP-Imp inh = inhibitors of RanGTP-importin-beta interaction, primary screen, biochemical, FRET, CFP-Ran, YFP-importin-beta, homogeneous. cell-free CFP-Ran/YFP-importin-beta FRET ratio. inhibition, % (no concentration beside the values). 300,000 tested, 1.1% active;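 active = most replicates above 15%; inconclusive = exactly half above 15%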;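 also: 0% = DMSO wells and 100% = Ran loaded with GDP instead of GTP; wells of about 40 µL received 100 nL stock; the first replicate is given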
HNF4A DNA FP = change in binding of human HNF4 alpha to DNA; HNF4a-FITC DNA binding, fluorescence polarization, 1 h; 360,000 tested, 0.3% active; activity change, % at 10 µM; in the data active = activity change above about 30%, passing the limit was not always enough;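 also: controls were the assay level and a saturating level of protein; the project sought stronger binding though the title names inhibitors; some compounds called inactive have numbers as strong as hits; positive values seem to mean higher polarization but the record does not say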
Target sequence (P41235 whole entry, looked up): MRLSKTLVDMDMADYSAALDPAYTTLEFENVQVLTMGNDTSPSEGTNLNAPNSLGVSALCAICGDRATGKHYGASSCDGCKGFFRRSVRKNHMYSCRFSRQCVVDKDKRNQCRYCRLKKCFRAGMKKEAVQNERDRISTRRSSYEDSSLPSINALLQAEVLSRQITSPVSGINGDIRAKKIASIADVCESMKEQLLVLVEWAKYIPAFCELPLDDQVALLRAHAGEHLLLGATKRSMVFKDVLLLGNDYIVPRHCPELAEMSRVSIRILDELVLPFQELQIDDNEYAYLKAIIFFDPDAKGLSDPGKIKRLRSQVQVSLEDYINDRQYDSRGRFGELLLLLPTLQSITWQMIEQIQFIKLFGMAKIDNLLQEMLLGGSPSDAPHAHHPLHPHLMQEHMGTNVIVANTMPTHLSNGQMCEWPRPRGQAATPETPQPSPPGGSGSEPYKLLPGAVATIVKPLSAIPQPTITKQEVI
UCH37 inh = human UCH37 deubiquitinating enzyme inhibition; inhibition, % (concentration not given with the values); AID 588478; 330,000 tested, 0.33% active; purified proteasome/UCH37, Ub-AMC cleavage fluorescence;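 active = mean of two replicates above 20%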;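 also: 0% = compound-free wells with enzyme and 100% = wells lacking proteasome; stock transfer was 100 nL into about 20 µL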
Target sequence (Q9Y5K5 whole entry, looked up): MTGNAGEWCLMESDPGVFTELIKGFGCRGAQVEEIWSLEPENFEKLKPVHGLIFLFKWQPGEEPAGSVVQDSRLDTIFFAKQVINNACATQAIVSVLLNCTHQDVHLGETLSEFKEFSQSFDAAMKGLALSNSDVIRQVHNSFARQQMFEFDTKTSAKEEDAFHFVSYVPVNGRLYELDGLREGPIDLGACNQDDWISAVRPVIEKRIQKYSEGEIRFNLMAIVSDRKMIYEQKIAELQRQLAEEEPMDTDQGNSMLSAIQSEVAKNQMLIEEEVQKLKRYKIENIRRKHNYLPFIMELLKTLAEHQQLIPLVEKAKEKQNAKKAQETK
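Assay system: Proteasome-bound UCH37. Buffer or medium: pH 7.4 Tris-HCl (50 mM) with ovalbumin, ATP-MgCl2, DTT. Incubation: 30 min preincubation with enzyme, 25 min cleavage at room temperature. Measured by: fluorescence, ex 355 nm, em 460 nm. Read-out basis: percent inhibition. Control set: wells without proteasome as full block, compound-free enzyme plus substrate as uninhibited.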
Vif A3G = inhibitors of Vif binding to APOBEC3G peptide, primary screen, biochemical, TR-FRET, GST-Vif 1-94, biotin-A3G peptide, dose response retest (AID 1117319) | inhibition, %; hits with a dose series show IC50 in µM | TR-FRET GST-Vif / biotin-A3G peptide binding; higher % means a stronger effect; test concentration not given here; strong numbers were not always called active | 260,000 tested, 0.57% active;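 active = above the screen mean plus three standard deviations and confirmed in dose response; inconclusive = results disagree or hit not tested in dose response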;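 also: Vif residues 1-94 fused to GST binding biotinylated APOBEC3G peptide 110-148; 0% = full assay without inhibitor and 100% = GST in place of GST-Vif; retest series ran down from 100 µM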
MLL AF4-AF9 inh = MLL-AF4/AF9 protein interaction inhibition; AlphaScreen, biotin-AF4 peptide binding to FLAG-AF9; inhibition, % at 10 µM; 350,000 tested, 0.47% active; AID 651704;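 active = every replicate reaching a set inhibition limit, whatever the replicate mean, cut at about 25% in these data; inconclusive = mean inhibition reaches that limit but some replicates miss it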;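 also: 0% = plate neutral control median and 100% = total signal loss; the record names both 10 and 1 µM as test concentration; the first replicate is given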
FGF22 binding = FGF22 (human) thermal shift binding | 340,000 tested, 1.5% active | AID 651658 | calls only at 9.99 µM | recombinant FGF22 thermal shift, SYPRO orange fluorescence; percent of sucrose octasulfate shift, DMSO zero;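 active = melting point raised past a set limit in the mean and every replicate; inconclusive = no clear call; three in four hits are not shown here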
Target sequence (Q9HCT0 whole entry, looked up): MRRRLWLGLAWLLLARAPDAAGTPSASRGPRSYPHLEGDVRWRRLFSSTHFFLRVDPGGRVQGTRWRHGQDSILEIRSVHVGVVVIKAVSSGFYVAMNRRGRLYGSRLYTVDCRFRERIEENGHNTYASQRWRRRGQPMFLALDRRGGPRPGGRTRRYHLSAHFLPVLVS
An asterisk follows results filed as active; i = inactive; ? = inconclusive; nt = no result given; & = joins results of further samples. Only part of the results is shown, so the mix of outcomes need not match the whole.

Values run as follows: E coli growth	RanGTP-Imp inh	HNF4A DNA FP	UCH37 inh	Vif A3G	MLL AF4-AF9 inh	FGF22 binding
1: CN(C)N1C(N)=C(C#N)C(c2cccc([N+](=O)[O-])c2)C2=C1CC(C)(C)CC2=O (stereo not drawn)
    0.69	-2.0	-6.6	5.7	-6%	-2.6	i
2: c1ccc(Oc2ccc(-c3ccnc4ncnn34)cc2)cc1
    0.68	-0.1	2.4	-4.9	nt	-2.2	i
3: CCCOc1ccc(N2C(=O)CC(N(Cc3ccc(S(N)(=O)=O)cc3)C(=O)CC)C2=O)cc1 (stereo not drawn)
    0.77	7.0	-1.1	-1.5	4%&8%	nt	nt
4: COc1ccc(-c2cc(C)no2)cc1S(=O)(=O)N1CCN(C(=O)c2ccco2)CC1
    0.68	-0.5	0.7	-0.2	nt	3.2	i
5: CCC(Sc1nc2cc(OC)c(OC)cc2c(=O)n1Cc1ccc(OC)cc1)C(=O)NCCOC (stereo not drawn)
    0.7	-1.6	2.3	2.7	-4%	-4.0	i
6: O=C(O)/C(=C\c1cccc(OCc2ccccc2)c1)c1ccc(F)cc1
    0.64	2.4	-0.2	-0.6	nt	0.6	i
7: CCOC(=O)CCCCCC(=O)Nc1ccc2c(c1)CC(=O)N([C@H](C)CO)C[C@@H](C)[C@H](CN(C)Cc1ccc3c(c1)OCO3)O2
    0.7	nt	-3.4	3.6	1%	9.4	i
8: O=C1CCCN1CCCNc1ccc2nnc(CCC(=O)N3CCN(c4ccc(F)cc4)CC3)n2n1
    0.68	-3.8	3.8	-1.2	nt	-1.3	i
9: CC(=O)Nc1ccc(-c2ccnc3c2CC(C)(C(=O)Nc2ccc(Cl)c(C(F)(F)F)c2)O3)cc1 (stereo not drawn)
    nt	nt	1.1	nt	nt	-0.4	i
10: O=C(N[C@@H](Cc1ccc(Br)cc1)C(=O)O)OCC1c2ccccc2-c2ccccc21
    nt	5.1	-5.1	4.0	nt	-4.4	i
11: COc1ccc(S(=O)(=O)N2CCN(C(=O)c3cc(C4CC4)nn3-c3ccccc3)CC2)cc1OC
    0.68	nt	2.1	0.2	5%	-3.4	i
12: N/C(=N\OC(=O)COc1ccc(Br)cc1)c1ccncc1
    0.68	2.6	3.1	2.6	-4%	2.5	i
13: O=C1NC(=O)C(c2ccccc2)(c2ccccn2)N1 (stereo not drawn)
    0.62	nt	2.2	-0.4	-9%	-3.0	i
14: CCN(CC)S(=O)(=O)c1cccc(NC(=O)CCNC(=O)c2ccccc2Cl)c1
    0.64	3.6	-1.3	-3.4	nt	-4.5	i
15: O=C(Nc1ccc(Cl)cc1C(=O)Nc1ccncc1)c1ccco1
    0.7	2.8	0.4	-19	0%	nt	nt

3 entries already listed, ordered by their value in HNF4A DNA FP, rising.
Values run as follows: E coli growth	RanGTP-Imp inh	HNF4A DNA FP	UCH37 inh	Vif A3G	MLL AF4-AF9 inh	FGF22 binding
1: CN(C)N1C(N)=C(C#N)C(c2cccc([N+](=O)[O-])c2)C2=C1CC(C)(C)CC2=O (stereo not drawn)
    0.69	-2.0	-6.6	5.7	-6%	-2.6	i
15: O=C(Nc1ccc(Cl)cc1C(=O)Nc1ccncc1)c1ccco1
    0.7	2.8	0.4	-19	0%	nt	nt
12: N/C(=N\OC(=O)COc1ccc(Br)cc1)c1ccncc1
    0.68	2.6	3.1	2.6	-4%	2.5	i

Following part
Values run as follows: E coli growth	RanGTP-Imp inh	HNF4A DNA FP	UCH37 inh	Vif A3G	MLL AF4-AF9 inh	FGF22 binding
16: CCOC(=O)C1=C(CC)OC(N)=C(C#N)C1c1cccs1 (stereo not drawn)
    0.68	4.5	2.9	-0.8	10%	7.5	i
17: CCN1CCN(C(=O)c2ccc(-c3nc4ccccc4s3)s2)CC1
    0.62	2.4	0.5	-91	0%	5.1	i
18: CC1(CC(=O)N/N=C/c2ccc(OCc3ccc(Cl)cc3Cl)cc2)OCCCO1
    nt	-0.4	3.0	nt	-1%	nt	nt
19: S=C(c1ccc(-c2cc(Cl)ccc2Cl)o1)N1CCCCC1
    0.68	-4.8	-3.4	5.1	0%	nt	nt
20: Fc1ccc(-c2cnn3c(-c4cccs4)ccnc23)cc1
    0.7	-7.7	8.1	3.9	1%	5.2	i
21: CCN(CC)S(=O)(=O)c1ccc(N2CCCC2)c(NC(=O)Cc2c(F)cccc2Cl)c1
    0.75	-0.1	-1.7	5.4	nt	-1.8	i
22: Cc1ccnc(NS(=O)(=O)c2ccc(Cl)nc2)c1
    0.71	0.4	0.1	3.6	21%	-6.6	i
23: CCC1CCC(C(=O)NC(CCSC)C(=O)NCCc2ccc(S(N)(=O)=O)cc2)CC1 (stereo not drawn)
    0.68	5.9	0.8	6.8	1%	0.5	i
24: O=C(Nc1ccccc1Cl)N1CCN(c2ccccn2)CC1
    0.7	8.1	1.2	-4.6	17%	nt	nt
25: Cc1ccc(N2CC(C(=O)Nc3ccccc3C(=O)N3CCOCC3)CC2=O)cc1 (stereo not drawn)
    0.72	nt	-1.6	1.5	nt	-0.3	i
26: O=C(COc1ccccc1)N/N=C/c1ccc2c(c1)OCO2
    nt	2.0	-0.6	nt	-8%	-1.9	i
27: COc1ccc(CNCCS(=O)(=O)NCc2ccccc2)cc1
    nt	nt	2.0	nt	nt	0.4	i
28: C/C(=N\Nc1nc2ccccc2[nH]1)c1ccc2c(c1)OCCO2
    nt	-1.0	3.6	nt	14%	?	i
29: O=C(C1CCN(S(=O)(=O)c2ccccc2)CC1)N(CCc1ccccc1)Cc1ccco1
    0.76	2.4	3.0	1.9	-6%	nt	nt
30: O=C(C(Sc1ccccc1)c1ccccc1)N1CCN(c2ccccc2)CC1 (stereo not drawn)
    0.66	-0.3	2.9	2.0	-1%	nt	nt
31: Cn1cccc1C(=O)NNC(=O)COc1ccc(Br)cc1
    0.63	2.9	0.7	1.2	-8%	1.1	i
32: Nc1ccc(C(=O)N(CCO)CCO)cc1
    0.64	4.1	0.5	3.3	2%	-0.6	i
33: C[C@H](CCC(=O)NCC(=O)O)[C@H]1CC[C@H]2[C@@H]3[C@H](O)C[C@@H]4C[C@H](O)CC[C@]4(C)[C@H]3C[C@H](O)[C@]12C
    nt	0.3&1.4	-0.8&1.2&2.2	1.3&0.8&4.7	nt	-1.3&-4.2&-3.6	i
34: CCN(CC)S(=O)(=O)c1ccc(C(=O)NCc2n[nH]c(=S)n2-c2ccccc2OC)cc1
    0.67	?	-0.7	1.5	-6%&50%	nt	nt
35: O=C(NNC(=O)c1n[nH]c2ccccc12)c1ccccc1
    0.65	nt	2.0	0.6	-5%	0.0	i
36: Cc1ccc(-n2c(-c3ccccc3)c[n+]3c2CCc2ccccc2-3)c(C)c1
    0.65	nt	0.1	-1.9	-9%	0.6	i
37: COc1cccc(-c2csc3nc[nH]c(=O)c23)c1
    0.64	0.3	4.8	0.2	-2%	nt	nt
38: CCOC(=O)C1CCCCN1Cc1cn(C)nc1-c1ccccc1F (stereo not drawn)
    0.71	7.6	1.1	1.1	25%	-4.2	i
39: O=C(CCl)Nc1sccc1C(=O)c1ccccc1
    0.71	0.0	-2.8	2.8	nt	1.6	i
40: Cc1nn(CC(=O)Nc2ccc(N3CCOCC3)cc2)c(C)c1[N+](=O)[O-]
    0.68	nt	1.8	1.7	4%	0.9	i
41: Cc1ccc(C)c(OCc2cc(C(=O)N3CCc4sccc4C3)no2)c1
    0.71	0.5	0.3	1.1	nt	-1.2	i
42: Cc1ccc(C(O)c2ncc(-c3ccc(Cl)cc3)[nH]2)c(C)c1 (stereo not drawn)
    nt	nt	-1.5	nt	nt	2.5	i
43: Cc1ccc(S(=O)(=O)NC(CC(C)C)C(=O)Nc2ccncc2)cc1 (stereo not drawn)
    0.68	?	-2.0	2.4	8%	3.5	i
44: Cc1ccc(NC(=O)c2ccn(C(=O)Nc3ccccc3)n2)c(C)c1
    0.69	-2.9	-10	4.1	2%	-5.9	i
45: C/C(Cn1nc([N+](=O)[O-])cc1C)=N\NC(=O)COc1ccc(Cl)cc1Cl
    nt	?	-3.1	nt	28%	nt	nt
46: COc1ccc2c(c1)CCNC2Cc1ccc(OC)c(O)c1 (stereo not drawn)
    0.66	96*	nt	0.2	nt	nt	nt
47: O=C(Cn1nc(Cc2cccnc2)c2ccccc2c1=O)Nc1cc(F)ccc1F
    0.71	5.5	-6.0	2.8	28%	5.2	i
48: COCCNC(=O)c1cc2sc3ccccc3c2s1
    0.68	0.7	3.6	-0.7	10%	nt	nt
49: COc1ccc(Nc2cc(C(=O)NCc3ccco3)c3ccccc3n2)cc1
    0.67	6.3	nt	-177	nt	nt	nt
50: O=C(c1cccc(C(=O)N2CCc3ccccc32)n1)N1CCc2ccccc21
    0.74	?	0.1	-6.8	-2%	nt	nt
51: Cc1ccc(-c2cc(C(=O)N3CCN(C(=O)c4ccco4)CC3)[nH]n2)cc1C
    0.67	0.4	-6.3	3.1	nt	-0.1	i
52: CC1CCCC(CC(N)=O)CC1 (stereo not drawn)
    0.71	nt	1.4	1.7	-1%	0.2	i
53: O=C(NC(Cc1ccccc1)C(=O)O)c1ccc(S(=O)(=O)N2CCCC2)cc1 (stereo not drawn)
    0.65	1.9	4.8	1.4	21%	nt	nt
54: COc1ccc(S(=O)(=O)N2CCc3ccccc32)cc1C(=O)N1CCN(C=O)CC1
    0.64	nt	0.8	-6.0	6%	1.7	i
55: O=C(NCc1ccccc1)Nc1nnc([C@@H]2C[C@H](O)[C@@H](CO)O2)s1
    nt	nt	0.7	nt	nt	0.8	i
56: Cc1cc(NC(=O)CCC(=O)N(CC(=O)NC2CCCC2)c2ccc(F)cc2)no1
    0.7	3.9	-0.3	3.7	3%	-0.5	i
57: O=C1NC[C@H](CCCCN2CCN(Cc3ccccc3)C(=O)C2=O)N(Cc2ccccc2)C1=O
    nt	nt	-1.7	nt	nt	-0.8	i
58: Cc1ccc(CC(=O)NCC(O)c2ccccc2)cc1 (stereo not drawn)
    0.63	-2.9	1.3	5.6	nt	-1.9	i
59: CCCNC(=O)c1cccc(COc2ccccc2OC)c1
    0.72	-2.3	0.8	0.0	nt	-0.1	nt
60: COc1ccc(N2C(=O)c3ccc(C(=O)Nc4ccccc4OC)cc3C2=O)cc1
    0.64	1.6	3.3	1.2	-6%	4.8	i
61: Cc1nonc1C(=O)N/N=C/c1cc2c(cc1Br)OCO2
    nt	3.2	7.3	nt	nt	-0.4	i
62: O=C(NCCS(=O)(=O)NCc1ccco1)c1ccccc1
    0.68	-1.9	-0.6	4.1	0%	-0.1	i
63: Cc1ccc(C(=O)c2ncc[nH]2)cc1
    0.7	-1.1	-4.3	2.2	nt	1.7	i
64: Cc1c(CC(=O)N2CCC(C(=O)O)CC2)c(=O)oc2cc3c(cc12)CCC1(CCCCC1)O3
    0.76	-1.0	1.8	i	nt	-0.2	i
65: O=[N+]([O-])c1ccc(O)c(C=Nc2cccc3ncccc23)c1
    0.68	1.2	0.8	6.0	nt	-16	i
66: O=C(c1nc2ccccn2c1CN1CCCC(OCc2ccccc2)C1)N1CCCC1 (stereo not drawn)
    0.65	-2.1	-1.0	3.4	nt	2.0	i
67: NS(=O)(=O)c1ccc(NCc2cc(Cl)ccc2OCc2ccc(F)cc2)cc1
    0.64	4.3	3.0	5.6	-13%	-2.0	i
68: O=C(CSc1nc2ccccc2c(=O)n1-c1ccc(Cl)cc1)N/N=C/C=C/c1ccccc1[N+](=O)[O-]
    nt	0.9	2.8	nt	?	-7.5	i
69: Cc1ccc(/C=N/NC(=O)CNC(=O)c2ccc(S(=O)(=O)N3CCCC3)cc2)o1
    nt	2.2	-3.1	nt	nt	2.9	i
70: CCN1C(=O)CC(N2CCN(c3ccc(Cl)cc3)CC2)C1=O (stereo not drawn)
    0.78	1.7	3.4	-1.2	?	nt	nt
71: CN(CCC1CCOCC1)C(=O)CC1C(=O)NCCN1CC1CCCCC1 (stereo not drawn)
    0.7	-1.8	-0.5	-20	-9%	-3.7	i

Screens (PubChem)
